# Source: PubChem
# GCN5L2 inh – qHTS Assay for Inhibitors of GCN5L2 | Histone acetyltransferase KAT2A (Homo sapiens), Q92830 | GCN5L2 HAT assay, ThioGlo1 CoA-SH fluorescence | Potency, µM (highest dose often 58.9 µM), without a hit: top-dose activity change, negative = inhibition, most hits filed as inhibitors | hit rate 0.21% among 390,000 | AID 504327, 2011
# Target sequence (Q92830 whole entry, looked up): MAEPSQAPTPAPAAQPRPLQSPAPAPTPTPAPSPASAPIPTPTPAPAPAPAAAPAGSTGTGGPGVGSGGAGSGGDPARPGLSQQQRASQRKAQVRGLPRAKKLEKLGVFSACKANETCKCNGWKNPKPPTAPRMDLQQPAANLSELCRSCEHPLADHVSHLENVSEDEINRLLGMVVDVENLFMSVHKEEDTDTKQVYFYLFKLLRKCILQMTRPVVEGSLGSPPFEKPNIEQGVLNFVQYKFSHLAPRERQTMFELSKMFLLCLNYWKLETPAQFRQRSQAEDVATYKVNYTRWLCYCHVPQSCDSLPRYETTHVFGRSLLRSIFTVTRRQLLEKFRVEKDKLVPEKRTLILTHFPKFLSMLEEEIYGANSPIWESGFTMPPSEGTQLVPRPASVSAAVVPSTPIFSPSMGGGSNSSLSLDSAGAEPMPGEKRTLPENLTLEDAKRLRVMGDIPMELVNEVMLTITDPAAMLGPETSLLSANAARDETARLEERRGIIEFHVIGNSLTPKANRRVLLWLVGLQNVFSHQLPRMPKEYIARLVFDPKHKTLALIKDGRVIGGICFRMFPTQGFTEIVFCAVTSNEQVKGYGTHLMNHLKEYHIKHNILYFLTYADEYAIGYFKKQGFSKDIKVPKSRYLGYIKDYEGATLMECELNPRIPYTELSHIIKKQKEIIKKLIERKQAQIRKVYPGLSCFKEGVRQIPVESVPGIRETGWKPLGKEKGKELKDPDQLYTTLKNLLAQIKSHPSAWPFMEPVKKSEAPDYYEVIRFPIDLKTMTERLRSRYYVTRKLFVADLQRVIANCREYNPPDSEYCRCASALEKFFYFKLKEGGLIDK
#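 Fluorescence readout, Ex340nm/Em540nm: ThioGlo1 (50uM final) reacts with free CoA thiol released as 20nM GCN5L2 acetylates H3(1-25) peptide (75uM) using acetyl-CoA (70uM). Compound and enzyme sat 15 min beforehand; 20 min room-temperature reaction.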
# N370S GC – qHTS Assay for Inhibitors and Activators of N370S glucocerebrosidase as a Potential Chaperone Treatment of Gaucher Disease | hit rate 0.092% among 330,000 | AID 2101, 2009 | Lysosomal acid glucosylceramidase (Homo sapiens), P04062 | N370S GC spleen homogenate, 4MU-glucoside fluorescence | Potency, µM (top dose mostly 59.4 µM), without a hit: at the highest dose activity change, negative = inhibition, most hits filed as inhibitors;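 also: 0% = full enzyme activity and -100% = no enzyme basal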
# An asterisk follows results filed as active; ? = inconclusive; . = not tested or not shown; & = joins results of further samples; [ ] = dose if it differs, or a comment. Calls follow the shape of the dose curve; as a rule, active = well fitted curve in the direction sought with a large enough effect; inconclusive = small, poorly fitted or top-dose-only effect, or another doubt; inactive = no such curve, though single readings can be large; an effect the other way counts as inactive or inconclusive. Unless noted, % is scaled to controls: 0 for no effect and ±100 for the full control effect; potency is read from the fitted curve at half-maximal effect.
SMILES,GCN5L2 inh,N370S GC
CC(N1CCOC1=O)S(=O)(=O)c1ccccc1 (stereo not given),0%,15%
CCOC(=O)c1ccc(-n2c(CN3CCC(O)CC3)nc3ccc([N+](=O)[O-])cc3c2=O)cc1,-8%,-8%
CCOC(=O)NCN1C(=O)C2C3C=CC(C3)C2C1=O (stereo not given),-25%,7%
COC(=O)C1(CCSC)NC(c2ccccc2OC)C2C(=O)N(C)C(=O)C21 (stereo not given),-2%,-14%
O=C(CSc1nc2c(sc3ccccc32)c(=O)n1CCO)NCc1ccco1,3%,5%
COc1ccccc1NS(=O)(=O)c1cc(NC(=O)CCNC(C)=O)ccc1N1CCCCC1,-13%,2%
CN(C(=O)CSc1nnc(-c2ccc(Cl)cc2)n1C)C1CCS(=O)(=O)C1 (stereo not given),2%,.
CCCNC(=O)COC(=O)c1cc(SC)ccc1Cl,-5%,.
O=C(N/C(=C\c1ccc(Cl)cc1)C(=O)N1CCCCC1)c1ccco1,-3%,-4%
Cc1csc(SC(C)C(=O)NCc2ccc3c(c2)OCO3)n1 (stereo not given),-22%,-5%
CCOC(=O)C1=NOC(C(=O)NN(C)c2ncc(C(F)(F)F)cc2Cl)C1 (stereo not given),-8%,2%
Cc1c(C(=O)N2CCCCC2)c(S(=O)(=O)NCc2ccc(Cl)cc2)c(C)n1C,0%,3%
CCOC(=O)/C=C/C(=O)OCC(=O)Nc1cccc(Br)c1,-3%,-9%
O=C(CCNC(=O)c1ccc(Br)cc1)NCC(c1ccco1)N1CCCCC1 (stereo not given),-6%,.
CCSc1nc2sc3c(c2c(=O)n1-c1ccccc1)CCN(C)C3,-16%,24%
COc1ccc(-n2c(SCC(=O)Nc3nccs3)nnc2-c2ccccc2)cc1,1%,-2%
COc1ccc(-c2cc(C(=O)NCCCN3CCOCC3)c3ccccc3n2)cc1OC,-1%,-7%
CC1CCCC(C)N1C(=O)COC(=O)c1c[nH]c2ccccc12 (stereo not given),-4%,.
CC(=O)N1CCc2cc(Br)cc(S(=O)(=O)NCCCN3CCC(C)CC3)c21,0%,3%
CC1CC(C)CN(C(=O)CSc2n[nH]c(N)n2)C1 (stereo not given),-3%,.
COc1ccc(C=O)cc1OS(=O)(=O)c1ccc(NC(C)=O)cc1,-1%,17%
N#CC(C#N)=C1C=C2C=C(N3CCOCC3)CCC2CC1 (stereo not given),2%,-9%
O=C(O)c1ccccc1NS(=O)(=O)c1ccc2ccccc2c1,1%,?
Cc1ccc(/C=C/c2nnc(-c3ccc(C)cc3)o2)cc1,-12%,11%
CCc1ccc(C(=O)COc2ccc(NC(C)=O)cc2)cc1,-1%,8%
Cc1ncc(CN2CCN(CCc3ccccc3)C(CCO)C2)s1 (stereo not given),-17%,0%
CN(Cc1ccccc1)c1nc2c(c(=O)[nH]c(=O)n2C)n1CCSc1nc2ccccc2[nH]1,1%,15%
Cc1c(NC(=O)C2(c3ccc(Cl)cc3)CCCC2)c(=O)n(-c2ccccc2)n1C,-8%,3%
Cc1ccc(C(=O)CCC(=O)OCC(=O)NNC(=O)c2ccc([N+](=O)[O-])cc2)cc1,-13%,.
CCCCN1CCCC[C@H]1C(=O)Nc1c(C)cccc1C,8%[21.4 µM],-4%
CCOc1c(CNCc2ccc(C(=O)O)cc2)cccc1OC,0%,7%
Cc1cccc(N=Nc2c(N)n[nH]c2N)c1,?,-10%
COC(=O)c1ccc(C)c(NC(=O)C(CCSC)NC(=O)c2cc(OC)c(OC)c(OC)c2)c1 (stereo not given),-2%,-2%
C=CCOc1c(Br)cc(CNc2ccc(NC(=O)C(C)C)c(OC)c2)cc1OC,-4%,14%
CCOc1ccc(Cl)cc1CSc1n[nH]c(CC)n1,1%,15%
COc1ccc(N/N=C(\C#N)C(=N)SCc2ccccc2)cc1,-5%,-9%
Cn1c(C=O)c(-c2ccc3cc[nH]c3c2)c2ccccc21,?,.
CCOC(=O)c1c(NC(=O)CN2CCN(C(=O)c3ccco3)CC2)sc2c1CCCC2,-14%,15%
O=C(O)Cn1c(-c2cccs2)cc2cc(Cl)ccc21,-2%,.
CCCNC(=O)NC(=O)COC(=O)CC(NC(N)=O)c1ccc(Cl)cc1 (stereo not given),-4%,9%
O=C(CN1CCN(c2cccc(Cl)c2)CC1)c1ccc(O)cc1O,-5%,-9%
CC1(C)CC(N2CCCC2)=CC(=[N+]2CCCCC2)C1,-12%,-22%
COc1ccccc1-c1coc2c(CN3C(C)CCCC3C)c(O)ccc2c1=O (stereo not given),-19%,3%
COC(=O)/C=C1/S/C(=N/NC(=O)c2ccc(Cl)cc2Cl)NC1=O,-1%,-18%
CCN(CC)CC(=O)Nc1cccc(S(=O)(=O)N2CCCC2)c1,4%,-12%
COc1ccc(C2/C=C\CN(S(=O)(=O)c3ccc(C)cc3)CC(=O)N2Cc2ccc(F)cc2)cc1 (stereo not given),-4%,-1%&6%
C=CCSc1nc(-c2ccc(OC)cc2)c(C#N)c(=O)n1CC=C,-9%,?
CC(C)n1nc(C(=O)NNC(=O)c2ccncc2)c2ccccc2c1=O,-5%,-8%
COc1ccccc1CNC(=O)CN1C(=O)NC(c2ccccc2)(c2ccc(C)c(C)c2)C1=O (stereo not given),-2%,-9%
CC(=O)Nc1ccc(Nc2nc(C)nc3c2nnn3Cc2ccccc2Cl)cc1,-4%,3%
COc1ccc(Cc2nc3ccc(C(=O)NCCCSC)cc3o2)cc1OC,-6%,-11%
COC(=O)CN1C(=S)N(c2ccc(OC)cc2)C(=O)/C1=C/c1cccs1,-3%,12%
CC(=O)N(Cc1ccc(Br)cc1)c1ccccc1C(=O)O,-4%,-1%
Cn1c(C(=O)O)c(CC(=O)Nc2ccccc2F)c2ccccc21,-8%,5%
CCc1nccn1S(=O)(=O)c1ccc(C)c(C)c1,-1%,-2%
CCOC(=O)/C=C(/C)N1N=C(c2ccc(OC)cc2)CC1c1cccc([N+](=O)[O-])c1 (stereo not given),15%,25%
CSc1cc(/C=N/O)c(SC)s1,-23%,13%
CCC1(CC)C(=O)N=C2c3ccccc3C(=O)N21,0%,2%
O=C(O)CCCC(=O)N1N=C(c2ccccc2)CC1c1ccc2c(c1)OCO2 (stereo not given),-4%,-1%
Cc1ccc(N2CC(C(=O)Nc3cc(C)ccc3F)CC2=O)cc1 (stereo not given),-5%,17%

# The results go on.
SMILES,GCN5L2 inh,N370S GC
CCC(NC(=O)CCc1c(C)c2cc3c4c(oc3cc2oc1=O)CCCC4)C(=O)O (stereo not given),-9%,3%
O=C(N/N=C/c1ccc(Cl)s1)c1ccccc1[N+](=O)[O-],-4%,1%
COC(=O)c1ccc(OCC(O)CN2CCC(C)CC2)cc1 (stereo not given),-13%,2%
Cc1cc(NC(=O)c2ccccc2)sc1C,.,-9%
O=C(COC(=O)COc1ccc(Cl)cc1Cl)NC1CCS(=O)(=O)C1 (stereo not given),1%,.
CCOc1ccccc1CNC(=O)Cn1ccc2cc(S(=O)(=O)N3CCCCCC3)ccc21,-5%,-6%
CCC(=O)Nc1nc(OC)cc(OC)n1,-4%,1%
COc1ccc(C2=NN(C3=NN=C(N)Cc4ncnn43)C(O)(C(F)(F)F)C2)cc1 (stereo not given),-27%,-4%
NS(=O)(=O)c1ccc(NC(=O)/C=C/c2ccc(S(=O)(=O)NCc3ccco3)cc2)cc1,-6%,-4%
CC1Cc2ccccc2N1C(=O)CSc1ncccc1C(=O)O (stereo not given),2%,4%
COc1ccc2nc(NC(=S)NC(=O)c3ccco3)sc2c1,-1%,8%
COc1ccc(N2CCN(C(CNC(=O)C(=O)NCc3cccnc3)c3ccco3)CC2)cc1 (stereo not given),0%,1%
NC(=S)Nc1ccc(Oc2ccc(NC(N)=S)cc2)cc1,76%[activator],-11%
COc1cc(NC(=O)Nc2ccc(C)cc2)cc([N+](=O)[O-])c1,1%,2%
O=C/C(=C\Nc1ccc(S(=O)(=O)CCO)cc1)c1nc2cc(Cl)ccc2o1,-7%,-13%
Cc1ccc(NC(=O)N2CCCC2C(=O)Nc2ccc3c(c2)OCO3)cc1 (stereo not given),-1%,2%
Fc1ccc(N2CCN(Cc3cnc(Cl)s3)CC2)cc1,5%,6%
O=C(NCc1ccc(F)cc1)c1cccnc1C(=O)O,3%,-10%
CC(/C=N/Nc1nncc(=O)[nH]1)=C\c1ccccc1,-3%,-7%
Cc1cccc(-n2ncc3c(NNC(=O)c4ccco4)ncnc32)c1,1%,-10%
O=C(CCCc1ccccc1)Nc1nncs1,-7%,-9%
O=C(c1cc2ccccc2cc1O)N1CCN(c2ccc([N+](=O)[O-])cc2)CC1,-7%,-7%
CCOc1ccc(-n2cc(C(=O)N3CCCCCC3)c3cc(OC)c(OC)cc3c2=O)cc1,1%,2%
COc1ccc(OC)c(S(=O)(=O)NC2CCSc3ccccc32)c1 (stereo not given),-4%,-5%
COc1ccc(-c2nnn(CC(=O)N3CCOCC3)n2)cc1,0%,2%
COc1cccc(CNC(=O)CCC2CCCN(Cc3ccc(OC(F)F)cc3)C2)c1 (stereo not given),11%,-14%
CCOC(=O)Nc1nc(-c2ccc(Cl)cc2Cl)cs1,-6%,23%
CCOC(=O)c1c(NC(=O)c2cccc(N3C(=O)CCC3=O)c2)sc2c1CCN(CC)C2,-3%,-4%
COc1ccc(NS(=O)(=O)c2cccc3cccnc23)cc1OC,10%,?
O=C(Nc1ccc(Br)cc1F)C1CCN(c2nnc(-n3cccc3)s2)CC1,-15%,2%
CCOC(=O)C1=C(N)Oc2cc(O)ccc2C1c1cccnc1 (stereo not given),0%,5%
COC(=O)c1ccc(CSc2nnc(C)s2)cc1,-11%,2%
Cc1[nH]n(-c2ccc([N+](=O)[O-])cc2)c(=O)c1C=NCCN1CCN(C(=O)c2ccccc2)CC1,-14%,7%
CCOC(=O)C1CCCN(C(=O)c2ccc(CS(=O)(=O)c3ccc(Br)cc3)o2)C1 (stereo not given),-4%,2%
Cc1ccc(CN2C(=O)N(c3ccc(F)cc3)C(=O)C2CC(=O)Nc2ccc(Cl)cc2)cc1 (stereo not given),-10%,.
COc1ccc(C(=O)Cn2nnc(-c3ccc(N4CCOCC4)cc3)n2)cc1OC,-13%,-8%
CC(Oc1ccccc1F)C(=O)NNC(=O)C1CC(=O)N(c2ccc3c(c2)OCCO3)C1 (stereo not given),-8%,-1%
COC(=O)c1ccc(NC(=O)CN2C(=O)C3C4C=CC(C4)C3C2=O)cc1 (stereo not given),-1%[0.501 µM],3%
Cc1ccc(CNC(=O)CSc2nc3n[nH]c(C)c3c(=N)n2-c2cccc(C)c2)cc1,0%,-8%
COCCN(Cc1cc2cc3c(cc2nc1Cl)OCO3)C(C)=O,-7%,12%
CCC(C)[C@H](NC(=O)N1CC(=O)Nc2ccccc21)C(=O)N1CCC(C(=O)O)CC1 (stereo not given in full),-5%,-2%
CC(N)=O,?,-3%
COc1ccc2oc(C(=O)OC(C)C(=O)NCc3ccccc3)c(C)c2c1 (stereo not given),-3%,1%
Cc1c(CCOC(=O)c2cc([N+](=O)[O-])cc([N+](=O)[O-])c2)sc[n+]1CC(=O)c1ccccc1,-1%,13%

# Only part of the results is shown; most or all hits stand in other tables.
